# Source: PubChem BioAssay
# Myeloid diff 2: myeloid differentiation induction | AID 624256 | ER-HoxA9 myeloid progenitors, lysozyme-GFP differentiation, flow cytometry | calls only at 10 µM | hit rate 1% among 360,000;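 active = normalized GFP-positive differentiation at or above the plate's own cutoff, the solvent-only control mean plus 3 SD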;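 note: cells exposed to compound for four days before flow analysis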
# MT stabilize HCS: microtubule stabilizers in HeLa cells; AID 2205; HeLa tubulin immunostaining HCS, 24 h; share of cells brighter than vehicle mean+2SD; % tubulin-high responders, % at 10 µM; hit rate 0.83% among 200,000;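 active = plate Z-score above 3 for both tubulin-high and condensed-nucleus cell shares, with cell loss under 80%, at 10 µM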;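 note: anti alpha tubulin signal scored within the nucleus-defined area of each cell; some results filed as inactive read as strong as hits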
# Dynein cargo inh: dynein cargo transport inhibition. z-score, hits read low. hit rate 0.47% among 220,000. 3617.4 mouse cells, GR-EGFP nuclear translocation imaging; test concentration mostly 20 µM; stimulated with dexamethasone, 1 µM; stronger effect = lower value. AID 1381;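 active = plate z-score of nuclear minus cytoplasmic receptor signal below a set negative limit, without overly bright fluorescence or cell loss, cut at about -3.5 in these data, passing the limit was not always enough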;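 note: z-score of nuclear minus cytoplasmic ring GR-EGFP intensity difference per well; some compounds called inactive have numbers as strong as hits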
#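 Buffer or medium: Induction medium lacking tetracycline, stripped serum | Also added: Dexamethasone agonist, 1.0 µM final, for 30 min | Timing: 48 h induction, 1 h compound, 30 min dex at 37 °C | Detection: Formaldehyde fixation, Hoechst nuclear stain, 10x automated fluorescence imaging | Measure: Nuclear versus cytoplasmic GR-EGFP signal, averaged per well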
# TNAP activation fold: human TNAP enzyme activators, primary screen, biochemical, luminescent, no phosphate acceptor, uHTS (AID 1001) | purified TNAP, luminescent activation assay, no phosphate acceptor; higher activation fold means a stronger effect | activation fold at 20 µM, or EC50 in µM where a hit was titrated | hit rate 0.03% among 200,000; in the data active = activation fold from about 3, or a potency from the dose series; inactive = the rest, 99 in 100 with activation fold below about 1.6; note: many of its hits are not listed in these tables
# Insulin prom up: MIN6 insulin promoter up-regulation; z-score at 5 µM; hit rate 0.3% among 190,000; MIN6 insulin promoter-GFP reporter, high-content imaging; stronger effect = higher value;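 active = z-score above 3 at 5 µM with at least 500 cells counted in the well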
# T cell modulator: T cell immune modulation candidate; 2C CD8+ T cell-vesicle binding, flow cytometry; stronger effect = lower value; calls only at 7 µM; hit rate 0.068% among 330,000;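 active = response, share of CD8 T cells binding vesicles, and their 90th percentile fluorescence all below set limits, cut at about 80% in these data, passing the limit was not always enough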
#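 System: murine 2C transgenic CD8+ T lymphocytes; also added: QL9-loaded Drosophila micro-vesicles; times: binding 1.5 h at 37 °C; measured by: flow cytometry, PE anti-B7-1 (FL2) versus Alexa647 anti-CD8 (FL8), PFA-fixed; control set: Peptide-free naked vesicles (low) and QL9 vesicles with 0.7% DMSO vehicle (high)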
# Lipid droplet: modulators of hepatic lipid droplet formation; AML12 mouse hepatocytes, oleate lipid droplets, BODIPY imaging; inhibition, % at 6.5 µM; hit rate 0.4% among 240,000; AID 1656;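 active = lipid droplet intensity inhibited by at least 50%, with more than 500 cells counted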
#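 Material: mouse AML12 hepatocyte cell line, fixed after treatment; Timing: compound with oleate, overnight; Technique: high-content imaging of BODIPY-stained droplets and DAPI nuclei; Probe or stimulus: oleate, 100 µM final; Dosing: compound at 6.5 µM only.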
# Dynein cargo inh cytoplasmic EGFP: second read-out of Dynein cargo inh, no call of its own (marks repeat the call); z-score; measured here: cytoplasmic GR-EGFP intensity; stronger effect = higher value
# Dynein cargo inh nuclear GR-EGFP: recorded beside Dynein cargo inh, whose call it bears; z-score; measured here: nuclear GR-EGFP intensity;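 lower value marks the stronger effect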
# Dynein cargo inh cell count: further read-out of Dynein cargo inh, marked with its call; z-score; measured here: cell count per field
# Insulin prom up cell count: recorded beside Insulin prom up, whose call it bears; cell count; measured here: cytotoxicity, nuclei count;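 total cells summed across four imaged fields per well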
# Lipid droplet cells 6.5 µM: second read-out of Lipid droplet, no call of its own (marks repeat the call); cell count; measured here: cell count, cytotoxicity flag;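 cells counted across two imaged fields per well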
# T cell modulator vesicle-bound %: also measured in T cell modulator; calls as there; double positive events, %; measured here: CD8+ vesicle-bound cell fraction;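 binding gate set so that unloaded-vesicle control wells show 10% double positive cells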
# MT stabilize HCS Hoechst-high %: further read-out of MT stabilize HCS, marked with its call; % Hoechst-high responders; measured here: nuclear condensation Hoechst responders;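 share of cells brighter than vehicle mean plus two SD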
# MT stabilize HCS cytotoxicity %: second read-out of MT stabilize HCS, no call of its own (marks repeat the call); toxicity, %; measured here: cytotoxicity by cell density;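 0% = mean cell density of plate MIN control wells and 100% = no cells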
# Myeloid diff 2 GFP+ MAC1+ %: second read-out of Myeloid diff 2, no call of its own (marks repeat the call); GFP+ MAC1+ double positive, %; measured here: differentiation confirmed by MAC1 staining
# An asterisk follows results filed as active; i = inactive; nt = no result given. Not all compounds are listed; the hit share may differ from the screen's.
SMILES,Myeloid diff 2,Myeloid diff 2 GFP+ MAC1+ %,MT stabilize HCS,MT stabilize HCS Hoechst-high %,MT stabilize HCS cytotoxicity %,Dynein cargo inh,Dynein cargo inh cytoplasmic EGFP,Dynein cargo inh nuclear GR-EGFP,Dynein cargo inh cell count,TNAP activation fold,Insulin prom up,Insulin prom up cell count,T cell modulator,T cell modulator vesicle-bound %,Lipid droplet,others
Cn1nnc(NC(=O)c2ccco2)n1,i,2.3,1.6,2.5,15.3,3.93,-0.191,1.65,-1.48,1.1,-0.28,1399,i,15.0,nt,
O=C(CC1SC(N2CCCCC2)=NC1=O)Nc1cccc(C(=O)O)c1 (stereo not drawn),i,0.6,1.2,1.6,8.1,0.81,-0.181,0.354,-0.436,1,-0.73,1276,i,34.3,nt,
CCS(=O)(=O)N1CCC(C(=O)NCCc2ccccc2)CC1,i,0.9,2.9,1.0,4.9,-0.741,-0.199,-0.485,0.478,1.2,0.91,1582,i,32.5,nt,
COc1ccc(NC2(c3ccc(Cl)cc3)C(=O)c3ccccc3C2=O)cc1,i,0.6,2.5,1.4,2.3,1.26,-0.189,0.0762,-0.486,1.1,-0.67,1747,i,36.0,nt,
COc1cccc(C(=O)NC2CC3CCCC(C2)N3CC(=O)Nc2ccccc2)c1 (stereo not drawn),i,0.9,2.2,2.6,15.4,-0.974,0.0898,-0.561,1.48,1.1,0.35,1466,i,32.6,nt,
CC(C)CC(=O)N(c1ccc(F)cc1)C1C=CS(=O)(=O)C1 (stereo not drawn),i,1.8,4.0,1.7,5.6,0.0657,-0.283,0.259,-0.724,1.1,-0.53,1328,i,36.5,nt,
COc1ccc(C(=O)NC(NC(=S)Nc2ccc(S(N)(=O)=O)cc2)C(Cl)(Cl)Cl)cc1 (stereo not drawn),i,0.6,2.4,1.1,9.0,0.323,-0.185,0.886,-0.486,0.7,-0.13,1574,i,22.9,nt,
CSc1nc(N)nc(SCC(=O)Nc2ccc(Cl)cc2)c1C#N,i,17.0,1.2,1.4,0.3,-0.31,-0.164,-0.268,0.554,1.1,-0.14,1462,i,50.8,nt,
COc1ccc(/C=C/C(=O)NCC(=O)N/N=C/c2cc(Br)ccc2OC)cc1,i,8.0,1.6,1.6,11.9,0.474,-0.244,0.352,-0.132,1.1,-0.43,1593,i,9.0,nt,
NS(=O)(=O)c1ccc(NC(=O)c2ccccc2C(=O)N2CCCCC2)cc1,i,1.0,2.4,1.6,8.5,-0.315,-0.198,-0.264,0.795,1.1,-0.24,821,i,32.0,11.6,Lipid droplet cells 6.5 µM=808
CCOc1cc(/C=N/n2cnnc2)ccc1OC(=O)c1cccc([N+](=O)[O-])c1,i,0.5,2.2,1.3,3.9,0.25,-0.189,-0.0412,0.265,1,-0.19,1665,i,40.6,nt,
CN=C(Nc1cc(C)nn1-c1ccccc1)c1ccccc1F,i,0.6,2.4,1.1,8.7,1.09,-0.223,0.865,0.751,1.1,0.63,1252,i,27.4,0.1,Lipid droplet cells 6.5 µM=756
CCn1c(CC(=O)Nc2ccc(C)cc2)nnc1SCC(=O)Nc1nc(C)cs1,i,0.2,2.7,1.9,8.8,1.28,-0.245,-0.472,-0.286,1.1,-0.17,1666,i,10.0,nt,
CC(=O)Nc1ccc(S(=O)(=O)N2CCN(c3cc4c(cc3[N+](=O)[O-])n(C)c(=O)n4C)CC2)cc1,i,1.2,2.9,1.8,4.4,-0.0198,-0.21,0.437,0.202,1.1,-0.7,1382,i,35.8,nt,
Cc1cc(NC(=O)CSc2nc3sc(C)c(C)c3c(=O)n2C2CCCC2)no1,i,2.2,3.1,1.9,10.4,-0.0532,-0.0472,0.244,0.557,1.1,-0.19,1373,i,18.0,nt,
O=C(/C=C1\NCC2c3ccccc3CCN2C1=O)c1ccccc1 (stereo not drawn),i,0.8,1.0,0.7,4.9,-0.11,-0.133,0.474,0.439,1,-0.07,1457,i,48.4,nt,
Cc1cc(OCn2ccc(C(=O)O)n2)ccc1Cl,i,0.6,3.9,4.0,5.9,-0.476,-0.332,-0.187,-0.0498,1,0.4,1581,i,11.4,nt,
CCCS(=O)(=O)N1CCCC(C(=O)NCCCN(Cc2ccccc2)C(C)C)C1 (stereo not drawn),nt,nt,1.4,0.7,7.0,-0.408,0.33,-0.261,0.857,1.1,0.05,1356,i,42.8,nt,
CN1CC(c2ccccc2Cl)C2(COc3ccccc3C2=O)C12C(=O)Nc1ccccc12 (stereo not drawn),i,2.5,3.2,1.4,1.6,0.901,-0.188,0.0878,-0.574,0.9,2.09,1577,i,23.1,nt,
Cc1ccccc1-c1noc(-c2ccc(Cl)cc2)n1,i,0.9,3.3,2.2,8.5,-0.969,-0.203,-1.22,0.0836,1,-0.32,1467,i,17.8,nt,
O=C(CN1CCN(S(=O)(=O)c2ccc(F)cc2)CC1)Nc1cc(C(F)(F)F)ccc1Cl,i,0.5,1.8,1.5,10.2,-0.264,-0.14,-0.119,0.423,1.1,-1.02,1153,i,50.5,nt,
CC(C)(C)N(NC(=O)Nc1ccc(Cl)c(Cl)c1)C(=O)c1ccccc1,i,0.6,1.2,2.0,9.3,0.615,-0.00554,0.572,-0.764,1.3,-0.52,1613,i,37.6,nt,
O=C(c1ccc(Cl)c(S(=O)(=O)NCc2ccccc2)c1)N1CCN(c2ccccn2)CC1,i,7.8,28.6,10.2,47.0,0.0511,-0.163,0.884,-1.05,0.9,-0.2,1539,i,49.5,nt,
Cc1ccccc1CSCCNC(=O)CSCc1ccc([N+](=O)[O-])cc1,i,3.4,2.2,1.5,6.6,-0.0996,-0.213,-0.248,0.52,1,-0.19,1638,i,13.0,nt,
COc1cc(/C=C2/C(=N)N3C=CSC3=NC2=O)ccc1OCCCOc1c(C)cccc1C,i,3.1,3.5,1.5,2.4,1.59,0.00672,-0.171,-0.261,1,0.1,1434,i,33.2,nt,

# Other entries follow:
SMILES,Myeloid diff 2,Myeloid diff 2 GFP+ MAC1+ %,MT stabilize HCS,MT stabilize HCS Hoechst-high %,MT stabilize HCS cytotoxicity %,Dynein cargo inh,Dynein cargo inh cytoplasmic EGFP,Dynein cargo inh nuclear GR-EGFP,Dynein cargo inh cell count,TNAP activation fold,Insulin prom up,Insulin prom up cell count,T cell modulator,T cell modulator vesicle-bound %,Lipid droplet,others
COc1cc(C2C(C#N)=C(N)Oc3c2ccc2ccccc32)ccc1OCC(=O)Nc1ccccc1C (stereo not drawn),i,2.2,5.5,3.9,5.2,-0.611,-0.128,-0.452,0.698,1.1,-0.91,1481,i,45.1,nt,
CCOC(=O)CN1C(=O)S/C(=C/c2ccc(N3CCCCC3)o2)C1=O,i,0.9,2.8,2.7,6.3,-1.06,4.16,0.395,0.0266,1,nt,nt,i,54.7,nt,
O=C(c1ccco1)N1CCN(S(=O)(=O)c2ccc3[nH]c(=O)oc3c2)CC1,i,0.7,2.5,1.7,6.7,-0.052,-0.197,0.796,-0.361,1,-0.66,1600,i,51.8,nt,
COc1ccc(Cc2nc(C(=O)NCc3ccccc3OC)cs2)cc1,i,2.1,1.4,1.6,7.4,-0.668,-0.209,-0.463,0.602,1.1,-0.81,1549,i,18.8,nt,
CCC(CC)c1nnc(NC(=O)C2COc3ccccc3O2)s1 (stereo not drawn),i,0.9,1.7,1.8,4.7,0.104,-0.17,0.923,-0.461,1.1,-0.25,1508,i,52.5,nt,
COc1ccc(C2NC(=S)NC3=C2CCc2cc(OC)ccc23)cc1 (stereo not drawn),i,7.7,2.6,1.8,4.2,-1.94,-0.0372,-0.356,0.289,1,-0.72,1472,i,54.3,nt,
COc1ccc(C)cc1NC1=C(Cl)C(=O)N(C2CCCCC2)C1=O,i,0.4,1.6,1.7,7.7,-0.477,0.0058,-0.407,0.355,1,-0.16,1554,i,37.5,nt,
Clc1ccc(N2N=C(c3cccs3)CC2c2ccco2)cc1 (stereo not drawn),i,0.4,2.7,2.3,6.5,0.671,-0.247,0.917,-1.04,1.5,0.1,1499,i,42.2,nt,
CC(=O)Nc1ccc(S(=O)(=O)N2CCN(c3nc(NC4CCCC4)c4ccccc4n3)CC2)cc1,i,0.5,2.4,3.7,14.9,0.12,-0.115,0.0501,0.0796,1.2,1.73,1374,i,28.1,nt,
CC(=O)N1CCN(c2nc3cc4c(cc3nc2NS(=O)(=O)c2ccccc2)OCCO4)CC1,i,0.0,3.9,3.2,15.6,2.36,-0.511,0.757,-0.562,1.1,0.07,1638,i,9.0,nt,
COc1ccccc1NC(=O)Cc1csc(NC(=S)Nc2ccc(C)cc2)n1,i,1.9,3.5,1.3,9.6,0.129,-0.207,0.682,1.34,1.1,0.05,1598,i,35.6,nt,
Cc1ccc(C(=O)COc2ccccc2C(=O)Nc2ccccc2)cc1,i,1.8,3.4,2.2,5.3,-0.473,0.934,0.61,1.28,1.1,-1.62,1286,i,15.9,nt,
CC12CCC(C(=O)N(CC(O)CN3CCCCC3)C1=O)C2(C)C (stereo not drawn),nt,nt,4.3,1.8,1.0,0.811,-0.162,0.309,-2.39,1.1,0.18,1633,i,5.9,-21.8,Lipid droplet cells 6.5 µM=609
COc1ccc(OCC(=O)Nc2cc(OC)cc(OC)c2)cc1,i,0.8,4.4,2.0,1.5,-0.668,-0.179,-0.178,-0.0243,1.1,-0.04,911,i,27.6,nt,
CCn1c(N)nc2ccccc21,i,0.6,3.9,3.3,5.3,0.489,-0.331,0.257,-1.18,1,-0.31,1232,i,18.6,nt,
COc1ccc(C(=O)NCc2ccc(-c3nc4ccccc4s3)cc2)cc1,i,1.9,2.7,2.3,10.1,-0.521,-0.18,0.102,0.94,1,-0.11,1317,i,38.4,nt,
